Bioassay records deposited in PubChem BioAssay by National Center for Advancing Translational Sciences (NCATS).
Rango-impB inh: Rango-importin beta binding inhibition | Q14974 | AID 540263 | Potency, µM (top dose mostly 92.2 µM), for the others: at the highest dose inhibition of complex formation | Rango CFP/YFP FRET sensor + importin beta, 45 min | actives 0.031% (n = 340,000); active = rising FRET ratio curve, often small or poorly fitted; inconclusive = mostly compound fluorescence or quenching in the first reads; inactive = flat curves in all reads;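 further: potency means the concentration at half of the fitted maximal effect; 0% = DMSO wells and 100% = buffer wells lacking importin beta; nearly all actives have a fitted effect of over 15% in size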
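FRET biosensor Rango (snurportin 1 IBB between N-terminal EYFP and C-terminal Cerulean), 50 nM in PBS/1 mM DTT/0.02% Tween-20/0.1% BSA, preincubated 5 min RT with compound; 0.125 microM importin beta added, 45 min RT, CFP/YFP FRET ratio read.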
GLA inh pH 4.5: inhibitors of human alpha-galactosidase A at pH 4.5; purified enzyme, 4-MU-alpha-Gal fluorescence, pH 4.5; activity change, negative = inhibition, % at 105 µM; 230,000 tested, under 10 active; inconclusive = small, poorly fitted or top-dose-only inhibition, or a rising curve; inactive = flat fitted curve, though single readings scatter; no compound was filed as active;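 further: 0% = full activity with enzyme and -100% = basal without enzyme; dose as in the result columns while the protocol names 77 µM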
Target sequence (P06280 whole entry, looked up): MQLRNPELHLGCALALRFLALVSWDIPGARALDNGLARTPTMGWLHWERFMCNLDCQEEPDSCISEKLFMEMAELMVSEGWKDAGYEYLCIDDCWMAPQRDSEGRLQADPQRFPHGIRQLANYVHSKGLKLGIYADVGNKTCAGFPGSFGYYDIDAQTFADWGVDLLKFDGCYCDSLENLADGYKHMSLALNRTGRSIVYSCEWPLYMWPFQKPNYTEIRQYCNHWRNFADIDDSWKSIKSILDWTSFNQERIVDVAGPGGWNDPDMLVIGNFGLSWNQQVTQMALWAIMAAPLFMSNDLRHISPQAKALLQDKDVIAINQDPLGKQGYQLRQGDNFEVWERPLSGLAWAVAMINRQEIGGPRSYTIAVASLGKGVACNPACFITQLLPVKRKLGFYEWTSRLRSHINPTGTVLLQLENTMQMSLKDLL
Rango dissoc inh: inhibitors of RanGTP-induced Rango-importin beta complex dissociation. Potency, µM (top dose mostly 46.1 µM), without a hit: at the highest dose activity change, negative = inhibition. O95149+P62826. Biochemical FRET Rango-importin beta, RanGTP-induced dissociation. actives 0.071% (n = 340,000); active means falling FRET ratio curve, often poorly fitted, with flat reads before Ran was added; inconclusive means other falling curves, or compound fluorescence or quenching; inactive means flat or rising ratio curve;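 further: potency means the concentration at half of the fitted maximal effect; % of control where 0% means no effect; nearly all actives have a fitted effect of over 45% in size; -100% = wells without RanGTP and RCC1; the record marks most hits as doubtful in a second field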
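Rango (0.1 uM)–importin beta (0.25 uM) complex; RanGTP-RCC1 trigger; 45 min RT; CFP/YFP FRET read.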
miR-21 reporter: raises the signal of a miR-21 reporter. Potency, µM (highest dose often 38.3 µM), for the others: at the highest dose reporter change, positive = more light. AID 2288. 340,000 tested, under 10 active. HeLa miR-21 FLuc reporter, luciferase, 48 h; active = well fitted rising curve with a large enough effect; inconclusive = small, poorly fitted or top-dose-only effect; inactive = no such curve, though single readings can be large or run the other way;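 further: % of control where 0% means no effect; miR-21 action dims this reporter so a rising signal means less miR-21 action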
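HeLa cells endogenously expressing miR-21, stably carrying CMV-driven firefly luciferase with a downstream miR-21 binding site, 2000 cells/well. Titrations up to approximately 40 uM, 48 hours; luciferase luminescence read.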
* = called active by the depositor; ? = inconclusive; / = no result given; & = joins results of further samples. The list is partial. The share of hits here may be higher or lower than overall.

SMILES	Rango-impB inh	GLA inh pH 4.5	Rango dissoc inh	miR-21 reporter
CCOc1cc(/C=N/NC(=O)c2nn(C)cc2Br)ccc1OCc1ccccc1	2.6%	-13	14%	-2%
O=S(=O)(c1ccccc1)N(F)S(=O)(=O)c1ccccc1	0.9%	/	9%	/
NC1=CC(=O)C(=O)c2ccccc21	5.5%	/	-10%	/
CCn1c(SCC(=O)Nc2nc(C)c(C)s2)nc2cccnc21	-0.2%	-9	4%	-30%
COc1ccc(-n2ncc3c2CC(C)(C)CC3NC(=O)c2ccc(OC)o2)cc1 (centres undefined)	-1.8%	/	1%	-5%
O=S(=O)(Nc1ccccc1N1CCCCC1)c1ccc(Cl)s1	-1.3%	-1	-22%	-3%
O=C(O)CSc1nc2ccccc2s1	1.6%	2&0	0%	-4%&2%
COCCC(=O)Nc1ccc2c(c1)CN(C(=O)CSC)CC2	-0.3%	2	1%	-1%
COc1ccc(-c2nnc(OCc3ccccc3)c3ccccc23)cc1	0.2%	11	-15%	14%
Cc1cc(C)n2cc(CSc3ncccc3C(=O)O)nc2n1	-2.6%	7	-11%	2%
CC(=O)N1N=C(c2ccco2)CC1c1ccc(Br)cc1 (centres undefined)	1.3%	-3	25%	-23%
O=C(O)/C=C/C(=O)N1CCN(C(=O)/C=C/C(=O)O)CC1	7.1%	-11	2%	-2%
Nc1ccccc1C(=O)N1O[C@@H]2C=C[C@H]1C2	-0.8%	/	-6%	/
COc1ccc(OC)c(NC(=O)Cn2c(CCC(=O)O)ccc2-c2cccs2)c1	0.5%	-3	-18%	-3%
O=C(O)c1ccc(N/N=C/c2cn(-c3ccccc3)nc2-c2cccs2)cc1	?	-4	-23%	0%
COc1ccc(C(=O)NC2CC3CCCC(C2)N3CC(C)C)cc1 (centres undefined)	-1.6%	/	-5%	-4%
C[C@H]1CN=C2N(CCNC(=O)CCC3CCCCC3)[C@H](Cc3ccc(O)cc3)CN21	-1.3%	9	19%	-1%
CCC(Sc1nc(C)cc(=O)[nH]1)C(=O)Nc1nc(-c2ccccc2)cs1 (centres undefined)	0.7%	-2	2%	-8%
CN(Cc1ccc(OC(F)F)cc1)Cc1nc2c(Br)cc(Br)cc2c(=O)[nH]1	-3.7%	-5	9%	-6%
CCOc1ccccc1N1CCN(c2ncnc3scc(-c4ccc(OC)cc4)c23)CC1	-0.6%	/	-1%	0%
C=CCC[C@H](Cc1ccc(F)cc1)C(=O)OC[C@@H](NC(=O)[C@H](CC=C)CC(=O)NCCO)c1ccccc1	-3.9%	/	6%	/
Cc1ccc2c(C)nc(N/C(N)=N/S(=O)(=O)c3ccc([N+](=O)[O-])cc3)nc2c1	0.3%	-7	2%	-11%
O=C(Nc1cccc(S(=O)(=O)N2CCCCC2)c1)C1CC(=O)N(Cc2ccco2)C1 (centres undefined)	-5.5%	-3	1%	-5%
C[C@]12CCC3C(CC=C4C[C@@H](O)CC[C@@]43C)C1CCC2[C@]1(C)CCC(=O)O1 (some centres undefined)	-0.1%	2	18%	-4%
COc1ccc(CNC(=O)CCCC(=O)Nc2cccc(Br)c2)cc1	-0.5%	/	-8%	-2%
O=C(COc1ncnc2cc([N+](=O)[O-])ccc12)NC1CCCCC1	-0.1%	-1	-3%	0%
CC(=O)Nc1nonc1-c1nc2ccccc2n1CC1CC1	-1.5%	-3	7%	-4%
O=C(NCC1(c2ccccc2)CCCC1)c1ccccc1	-0.6%	-9	-10%	-8%
COc1cc(CNn2cn[nH]c2=S)cc(Cl)c1OCc1ccc(F)cc1	8.0%	-12	3%	-2%
COc1ccccc1C(=O)NC(=S)Nc1cccc2cc(O)ccc12	3.0%	/	2%	/
O=c1onc(-c2ccc(Cl)cc2Cl)n1-c1cccnc1	-0.3%	-2	-7%	-13%
Cc1c2ccccc2cc[n+]1CCCS(=O)(=O)[O-]	-2.2%	-4	0%	-10%
CCn1c(SCC(=O)NCCCN2CCCC2=O)nnc1-c1cccc(C)c1	1.7%	/	0%	/
Cc1[nH][nH]c(=O)c1[C@@H](c1ccccc1[N+](=O)[O-])C(C#N)C#N	?	-7	-5%	1%
COCCCNC(=S)Nc1cc2oc3ccccc3c2cc1OC	9.6%	/	0%	15%
COC(=O)c1sccc1NC(=S)Nc1cc(C)ccc1OC	-2.0%	1	-8%	-2%
COc1cc2ncnc(NCc3cccs3)c2cc1OC	3.1%	2	-7%	-6%
CCNC(=O)c1c(N)sc2c1CCCCC2	/	-1	/	-1%
NC(=O)COc1ccc(NC(=O)c2ccccc2-c2ccccc2)cc1	15%	12	9%	4%
CCc1[nH]nc(C(=O)NC2CCCN(Cc3ccccc3F)C2)c1C (centres undefined)	7.0%	/	11%	-7%
Cn1ncc(Br)c1C(=O)N1CCc2ccccc21	-1.7%	5	0%	-14%
COc1ccc(-c2cc(-c3nnc(COC(=O)C4CC4)o3)c3ccccc3n2)cc1OC	?	0	?	-9%
COc1cc(C(=O)Oc2cccc(Nc3ncnc4ccccc34)c2)cc(OC)c1OC	-3.2%	-5	-13%	24%
CCN(C[C@H]1N[C@@](CC)(C(=O)OC)[C@H]2C(=O)N(C)C(=O)[C@@H]12)S(=O)(=O)c1ccc(C(F)(F)F)cc1	-0.4%	/	-3%	/
COc1ccc(CC(=O)Nc2ccc(NC(=O)c3ccccc3F)cc2)cc1	0.4%	1	2%	-10%

Full records, looked up by structure. Order of screens: Rango-impB inh, GLA inh pH 4.5, Rango dissoc inh, miR-21 reporter
CCN(C[C@H]1N[C@@](CC)(C(=O)OC)[C@H]2C(=O)N(C)C(=O)[C@@H]12)S(=O)(=O)c1ccc(C(F)(F)F)cc1 is listed as -0.4%, /, -3%, /
Cc1[nH][nH]c(=O)c1[C@@H](c1ccccc1[N+](=O)[O-])C(C#N)C#N is listed as ?, -7, -5%, 1%
Cc1c2ccccc2cc[n+]1CCCS(=O)(=O)[O-] is listed as -2.2%, -4, 0%, -10%
COc1ccc(-c2cc(-c3nnc(COC(=O)C4CC4)o3)c3ccccc3n2)cc1OC is listed as ?, 0, ?, -9%

(listing goes on)
SMILES	Rango-impB inh	GLA inh pH 4.5	Rango dissoc inh	miR-21 reporter
O=C(/C=C/Nc1ccc(S(=O)(=O)Nc2ncccn2)cc1)c1ccc2ccccc2c1	?	-4	?	-14%
Cc1ccccc1NC1c2ccccc2C(=O)N1Cc1ccco1 (centres undefined)	-1.7%	1	0%	-13%
Cc1sc2nc[nH]c(=O)c2c1-c1ccc(Cl)cc1	-4.0%	/	18%	2%
O=C(CCc1nc(-c2ccccc2F)no1)NCCN1CCN(Cc2ccccc2)CC1	-3.0%	1	-11%	-2%
COc1ccc2cc(C(=O)C3CCCN(C(=O)c4cnccn4)C3)ccc2c1 (centres undefined)	-2.2%	2	2%	-14%
COC(=O)c1ccc(NC(=O)CC2C(=O)N(C)C(=S)N2Cc2ccc(S(N)(=O)=O)cc2)cc1 (centres undefined)	-0.9%	-3	-4%	-3%
Cc1nnc2ccc(-c3cccc(NC(=O)c4ccco4)c3)nn12	-2.8%	-12	-12%	11%
O=C(Cc1csc(NC(=O)Nc2cccc(Cl)c2)n1)NCc1ccccn1	2.4%	/	-7%	/
Cc1ccc(C(=O)NCCCNC(=O)Cc2ccccc2)cn1	-1.3%	/	-21%	2%
COCCNC(=S)N1CCN(C(=O)C(=O)Nc2ccc(C(=O)OC)cc2)CC1	3.3%	3	-2%	1%
O=C(NCC(c1ccco1)N1CCc2ccccc2C1)c1ccc(Cl)cc1 (centres undefined)	0.8%	/	-1%	/
CCc1nnc(NC(=O)CSc2nnc(Cc3cc(=O)[nH]c(=O)[nH]3)n2-c2ccc(OC)cc2)s1	0.6%	7	-8%	0%
CCCCCCN(C(=O)CCCCCN1C(=O)NC(c2cccc([N+](=O)[O-])c2)C(C(=O)OCc2ccccc2)=C1C)C(C(=O)NCCCC)c1ccc(OCC(=O)OC)c(C(=O)OC)c1 (centres undefined)	/	0&-10	/	1%
O=C(Cn1ccccc1=O)c1cccs1	-4.7%	-4	-14%	0%
CCOc1ccc(NC(=O)c2ccccc2NC(=O)c2cccnc2)cc1	-4.4%	/	-11%	2%
Cc1ccc(-n2c(C(C)n3nc(C)c([N+](=O)[O-])c3C)n[nH]c2=S)cc1 (centres undefined)	1.9%	4	-2%	-19%
CC(=O)c1c[nH]c2ccc(C)cc2c1=O	?	-18	-9%	4%
O=c1c(Cc2ccccc2)c(O)nc2n1CCS2	1.1%	4	11%	-1%
COc1cc(C(F)(F)F)c(C(=O)NCc2cccc(Cl)c2)cn1	1.5%	-3	-9%	-2%
O=C(Cn1ncn2c(cc3ccccc32)c1=O)NCCc1cccs1	0.2%	/	?	-4%
CCC(C)(C)n1nnnc1C(C(C)C)N1CCC(C(N)=O)CC1 (centres undefined)	0.2%	3	0%	0%
COc1ccc(-c2nc(N)n(C(=O)c3ccccc3Cl)n2)cc1	-0.3%	-5	4%	-10%
O=C(NCCCn1ccnc1)C1CC(c2ccccc2Cl)=NO1 (centres undefined)	-3.6%	1	-5%	-1%
CCC(C)C(NC(=O)c1ccccc1NC(=O)c1ccc(C)cc1)C(=O)O (centres undefined)	0.8%	1	17%	-31%
COc1ccc(C(=O)NNC(=O)COc2ccc(Cl)cc2)c(OC)c1	?	/	6%	1%
CCSC(=O)NC12CC3CC(CC(C3)C1)C2	3.0%	0	-1%	-1%
COC(=O)C(NC(C)=O)(Nc1ccccn1)C(F)(F)F (centres undefined)	2.6%	5	-8%	0%
O=C(/C=C/c1ccc(F)cc1)N1CCN(c2ncccn2)CC1	-1.2%	0	-11%	-5%
COc1ccccc1C=NN=C(NN=Cc1ccccc1OC)NN=Cc1ccccc1OC	0.4%	/	-5%	/
CCCCN(C(=O)CN1CCOCC1)c1c(N)n(CC(C)C)c(=O)[nH]c1=O	-0.6%	2	-11%	-2%
Cn1c(N)c(S(=O)(=O)NCc2ccc(Cl)cc2)c(=O)n(C)c1=O	-1.5%	1	-3%	-2%
CC(/C=C/c1ccc(OCc2ccccc2)cc1)=N\O	-3.4%	2	?	-66%
COc1ccc(C(=O)Nc2ccccc2C(=O)NC(Cc2c[nH]c3ccccc23)C(=O)O)cc1 (centres undefined)	0.0%	-19	-24%	-24%
COC(=O)c1sc(=S)n(-c2cccc(Cl)c2)c1N	-3.2%	-4	1%	-3%
CC1CCCN(C(=O)COC(=O)/C=C/c2ccc(C(F)(F)F)cc2)C1 (centres undefined)	2.6%	/	2%	/
CCN(CC)c1ccc(C=NCCNS(=O)(=O)c2ccc(C)cc2)cc1	0.3%	/	0%	0%
CC(C)[C@H](NC(=O)OC(C)(C)C)c1nnc(S(=O)(=O)Cc2c(F)cccc2Cl)o1	2.9%	-7	-2%	?
COC(=O)c1ccc(Oc2nc3ccccc3n3c(C)nnc23)cc1	-0.3%	/	2%	/
CCCCc1cc(=O)oc2c(CN3CCCC3)c(O)ccc12	?	?	?	1%
CCOC(=O)Cn1c(=O)c2c(nc3n2CCN3c2ccc(C)cc2)n(C)c1=O	/	-9	/	-1%
CCOC(=O)CCc1c(C)c2ccc(O)cc2oc1=O	?	?	?	-6%
CSc1ccc(/C=C/C(=O)c2ccc(O)cc2)cc1	?	-7	?	-34%
O=C1NCCOC(=O)[C@H](Cc2ccc(F)cc2)CC/C=C/C[C@H]1CC(=O)N(CCO)Cc1ccccc1	-6.4%	/	7%	/
O=C(N/N=C/c1cccc2ccccc12)c1ccncc1	7.6%	/	-5%	1%
CCc1nc(SCC(=O)N2CCCc3ccccc32)c2oc3ccccc3c2n1	1.1%	2	3%	17%

Arranged by the number under Rango-impB inh (smallest number first): 4 from the list above.
SMILES	Rango-impB inh	GLA inh pH 4.5	Rango dissoc inh	miR-21 reporter
COC(=O)c1sc(=S)n(-c2cccc(Cl)c2)c1N	-3.2%	-4	1%	-3%
Cn1c(N)c(S(=O)(=O)NCc2ccc(Cl)cc2)c(=O)n(C)c1=O	-1.5%	1	-3%	-2%
COc1ccc(C(=O)Nc2ccccc2C(=O)NC(Cc2c[nH]c3ccccc23)C(=O)O)cc1 (centres undefined)	0.0%	-19	-24%	-24%
CCc1nc(SCC(=O)N2CCCc3ccccc32)c2oc3ccccc3c2n1	1.1%	2	3%	17%
